Source: PubChem (Broad Institute)
Ecoli rRNA inh: selective bacterial rRNA inhibition in E. coli. GFP signal change (wild-type ribosome), % (no concentration beside the values). E. coli WT GFP vs humanized-ribosome RFP mutants, fluorescence, 24 h; stronger effect = lower value; DMSO median 0, no signal -100. 1.6% of 350,000 active;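 active = significant combined selectivity score with lowered wild-type GFP, culture density cut under 30%, mutant RFP and density less affected; inactive = any of these conditions unmet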; also: one replicate is shown; some compounds called inactive have numbers as strong as hits
Ecoli rRNA inh OD600: also measured in Ecoli rRNA inh; calls as there; OD600 change, %; measured here: OD600 growth;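 optical density of the mix in the first replicate; 0 = DMSO median and -100 = no signal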
Ecoli rRNA inh RFP: also measured in Ecoli rRNA inh; calls as there; RFP signal change, %; measured here: RFP humanized mutant strains;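 first replicate; 0 = DMSO median and -100 = no signal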
* = called active by the depositor; & = joins results of further samples.

SMILES | Ecoli rRNA inh | Ecoli rRNA inh OD600 | Ecoli rRNA inh RFP
C[C@H](CO)N1C[C@H](C)[C@@H](CN(C)Cc2ccc3c(c2)OCO3)Oc2c(NC(=O)Nc3ccc4c(c3)OCO4)cccc2C1=O | -5 | -11 | 2.7
CC(C)NC(=O)N1CC[C@@H]2[C@H]1c1cc(Br)ccc1N(C)[C@H]2CO | 2 | -6 | -2.0
CC(=O)C(Cc1ccccc1)NC(=O)COC(=O)c1cc(S(=O)(=O)N2CCOCC2)ccc1F (stereo unspecified) | 4 | 9 | 0.6
O=C(NC1CCCCC1)N1CC(=O)N2[C@H](CO)[C@@H](c3ccc(-c4cccnc4)cc3)[C@@H]2C1 | 1 | 9 | -4.6
O=C(NCC[C@@H]1CC[C@@H](NC(=O)C2CCCCC2)[C@@H](CO)O1)Nc1ccc(Cl)cc1 | -52 | -64 | 10
COc1ccc2c3c([nH]c2c1)[C@@H](CO)N(C(=O)Nc1c(C)noc1C)CC31CCN(CC2CCCCC2)CC1 | -1 | -9 | -1.8
CC(=O)Nc1ccc2c(c1)C(=O)N(C)[C@H]1CC[C@H](CC(=O)NC3CCCCC3)O[C@@H]1CO2 | 1 | -2 | 2.1
CCCNC(=O)N1CC2(CN(C(=O)Cc3cccnc3)C2)c2c([nH]c3cc(OC)ccc23)[C@@H]1CO | 2 | 11 | -1.0
O=C(NC1CCCC1)[C@H]1[C@H](CO)[C@H]2Cn3c(ccc(-c4ccncc4)c3=O)[C@H]2N1CCc1ccccc1 | -5 | -13 | 0.1
COc1ccc(S(=O)(=O)Nc2ccc3c(c2)CC(=O)N([C@H](C)CO)C[C@H](C)[C@@H](CN(C)C(=O)NC(C)C)O3)cc1 | 1 | 7 | -0.7
CC(C)NC(=O)N(C)C[C@H]1OCCCC[C@H](C)Oc2ccc(NC(=O)Nc3ccc(C(F)(F)F)cc3)cc2C(=O)N([C@@H](C)CO)C[C@H]1C | 6 | 6 | 1.0
CCCNC(=O)N(C)C[C@H]1Oc2cc(-c3ccccc3)ccc2S(=O)(=O)N([C@H](C)CO)C[C@@H]1C | -4 | -6 | -0.7
COC(=O)[C@]12CCCCC=C1N(Cc1ccco1)C(=O)[C@H](CC(=O)NCc1ccccc1)C2 | -12 | -10 | 4.2
CCC/C=C/c1ccc(CN2C(CC(C)C)C(=O)N(Cc3cn(CCC4OCCO4)nn3)CCS2(=O)=O)cc1 (stereo unspecified) | 11 | 3 | 0.6
O=C(C[C@@H]1CC[C@H]2[C@@H](COC[C@@H](O)CN2Cc2cc(F)cc(F)c2)O1)NCc1cccc(F)c1 | -2 | -3 | -0.9
COc1ccc(NC(=O)N(C)C[C@@H]2Oc3ccc(NS(=O)(=O)c4cn(C)cn4)cc3C(=O)N([C@H](C)CO)C[C@@H]2C)cc1 | 0 | 0 | -0.7
COCC(=O)Nc1ccc2c(c1)C(=O)N(C)[C@H]1CC[C@@H](CC(=O)NCc3ccc(OC)cc3)O[C@H]1CO2 | 4 | 1 | -0.1
CC(C)NC(=O)N[C@H]1CC[C@@H](CCNC(=O)C2CCCC2)O[C@@H]1CO | 2 | -3 | -3.8
COc1ccc(CN(C)C[C@H]2OCCCC[C@@H](C)Oc3ccc(NS(=O)(=O)c4ccc(C)cc4)cc3C(=O)N([C@H](C)CO)C[C@H]2C)cc1 | 5 | -27 | 30
C[C@@H]1CN([C@@H](C)CO)S(=O)(=O)c2ccc(-c3ccccc3F)cc2O[C@@H]1CN(C)CC1CC1 | -3 | 1 | 3.4
COc1cc(C(O)c2nc(-c3csc4ccccc34)cs2)ccc1F (stereo unspecified) | -58 | -69 | -19
c1cncc(Oc2ccc(NCCc3c[nH]c4ccccc34)cc2)c1 | -47 | -70 | -14
CCOC(=O)[C@]12CCCC=C1N(Cc1ccc3c(c1)OCO3)C(=O)[C@H](CC(=O)NCc1ccc(OC)c(OC)c1)C2 | -22 | -25 | 2.3
NC(c1csc(NC(=O)Nc2cccc(C(F)(F)F)c2)n1)C1CCCCC1 (stereo unspecified) | -51 | -75 | -13
C[C@@H]1CN([C@H](C)CO)C(=O)c2cc(C#CCN(C)C)cnc2O[C@H]1CN(C)Cc1ccc(C(=O)O)cc1 | 2 | 6 | -1.0

Compounds above containing a CF3 group, in the order listed:
SMILES | Ecoli rRNA inh | Ecoli rRNA inh OD600 | Ecoli rRNA inh RFP
CC(C)NC(=O)N(C)C[C@H]1OCCCC[C@H](C)Oc2ccc(NC(=O)Nc3ccc(C(F)(F)F)cc3)cc2C(=O)N([C@@H](C)CO)C[C@H]1C | 6 | 6 | 1.0
NC(c1csc(NC(=O)Nc2cccc(C(F)(F)F)c2)n1)C1CCCCC1 (stereo unspecified) | -51 | -75 | -13

Entries listed so far that have sulfur, in the order listed:
SMILES | Ecoli rRNA inh | Ecoli rRNA inh OD600 | Ecoli rRNA inh RFP
CC(=O)C(Cc1ccccc1)NC(=O)COC(=O)c1cc(S(=O)(=O)N2CCOCC2)ccc1F (stereo unspecified) | 4 | 9 | 0.6
COc1ccc(S(=O)(=O)Nc2ccc3c(c2)CC(=O)N([C@H](C)CO)C[C@H](C)[C@@H](CN(C)C(=O)NC(C)C)O3)cc1 | 1 | 7 | -0.7
CCCNC(=O)N(C)C[C@H]1Oc2cc(-c3ccccc3)ccc2S(=O)(=O)N([C@H](C)CO)C[C@@H]1C | -4 | -6 | -0.7
CCC/C=C/c1ccc(CN2C(CC(C)C)C(=O)N(Cc3cn(CCC4OCCO4)nn3)CCS2(=O)=O)cc1 (stereo unspecified) | 11 | 3 | 0.6
COc1ccc(NC(=O)N(C)C[C@@H]2Oc3ccc(NS(=O)(=O)c4cn(C)cn4)cc3C(=O)N([C@H](C)CO)C[C@@H]2C)cc1 | 0 | 0 | -0.7
COc1ccc(CN(C)C[C@H]2OCCCC[C@@H](C)Oc3ccc(NS(=O)(=O)c4ccc(C)cc4)cc3C(=O)N([C@H](C)CO)C[C@H]2C)cc1 | 5 | -27 | 30
C[C@@H]1CN([C@@H](C)CO)S(=O)(=O)c2ccc(-c3ccccc3F)cc2O[C@@H]1CN(C)CC1CC1 | -3 | 1 | 3.4
COc1cc(C(O)c2nc(-c3csc4ccccc34)cs2)ccc1F (stereo unspecified) | -58 | -69 | -19
NC(c1csc(NC(=O)Nc2cccc(C(F)(F)F)c2)n1)C1CCCCC1 (stereo unspecified) | -51 | -75 | -13

Other results follow.
SMILES | Ecoli rRNA inh | Ecoli rRNA inh OD600 | Ecoli rRNA inh RFP
O=C(NCCc1ccccc1F)C1CC(=O)N(c2ccc3c(c2)OCCO3)C1 (stereo unspecified) | 0 | -1 | 1.8
Cc1c(C(=O)NCc2cccc(C(F)(F)F)c2)sc(=O)n1Cc1ccc(S(=O)(=O)N(C)C)cc1 | -1 | -9 | -3.2
Cc1ccc(S(=O)(=O)C[C@@H]2OC[C@H](CO)N2S(=O)(=O)c2ccc(C)cc2)cc1 | -4 | 2 | -4.2
C[C@@H]1CN([C@@H](C)CO)C(=O)c2cccc(NC(=O)c3cnccn3)c2O[C@H]1CN(C)C(=O)NC1CCCCC1 | 2 | -3 | -1.8
CC(C)C[C@@H]1COCc2cn(nn2)CC[C@H](Cc2ccc(-c3ccccc3)cc2)C(=O)N1 | -4 | 1 | 1.8
O=C(NC[C@H]1N[C@H](CO)[C@@H]1c1ccccc1)C1CCCC1 | 3 | -2 | -0.1
CS(=O)(=O)N1CCCCN2[C@H](CO)[C@@H](c3ccc(C#Cc4ccccn4)cc3)[C@H]2C1 | 10 | 17 | -1.4
O=C(C[C@@H]1CC[C@@H]2[C@H](COC[C@@H](O)CN2Cc2ccccc2)O1)NCCc1ccccc1 | -5 | 4 | -0.1
C[C@@H]1CN([C@H](C)CO)C(=O)c2cc(C#Cc3ccccc3F)cnc2O[C@H]1CN(C)C(=O)C1CC1 | -1 | -6 | 1.5
COc1ccc2c3c([nH]c2c1)[C@H](CO)N(C(=O)Nc1c(C)noc1C)CC31CN(CC2CCOCC2)C1 | 6 | 13 | 0.0
CN(C)c1ccc2c(c1)[C@@H]1C[C@@H](CC(=O)NCc3ccccn3)O[C@H](CO)[C@@H]1O2 | 3 | 18 | 4.9
COc1ccccc1C#Cc1ccc([C@@H]2[C@H](CO)N3CCCCN(S(C)(=O)=O)C[C@@H]23)cc1 | 6 | 3 | 9.2
CCc1cccc(NC(=O)COC(=O)CSc2ccc(C)cc2)c1 | 1 | -27 | -0.7
C[C@H](CO)N1C[C@H](C)[C@H](CN(C)Cc2cncnc2)Oc2ncc(-c3cccc(F)c3)cc2C1=O | -3 | 5 | 0.8
C[C@H](CO)N1C[C@H](C)[C@@H](CN(C)C)Oc2ccc(NS(=O)(=O)c3cccs3)cc2C1=O | -1 | -1 | -2.0
CCCNC(=O)N1[C@H](C#N)[C@H](c2ccc(C3=CCCCC3)cc2)[C@@H]1CO | -29 | -54 | -8.3
C[C@H]1CCCCO[C@@H](CN(C)C(=O)Nc2ccc(C(F)(F)F)cc2)[C@@H](C)CN([C@@H](C)CO)C(=O)c2cc(NC(=O)Nc3ccc(C(F)(F)F)cc3)ccc2O1 | 5 | 4 | -2.0
CCc1nc2ccc(C(=O)NCc3ccccc3OC)cn2c1N(CC)CCOC | 2 | -3 | -1.5
CCCNC(=O)N1CC2(CN(CC3CCOCC3)C2)c2c(n(C)c3cc(OC)ccc23)[C@@H]1CO | 3 | 6 | -1.1
O=C(c1ccc(F)cc1)N1C[C@@H]2N[C@H](C1)C2c1ccc(-c2ccccc2F)cc1 (stereo partly specified) | -60&-61 | -75&-80 | -11&-15
C/C=C/c1ccc([C@H]2[C@@H](CNC(=O)C3CC3)N(C(=O)CC)[C@H]2CO)cc1 | -1 | 6 | -1.9
O=C([C@@H]1[C@@H](CO)[C@@H]2Cn3c(cccc3=O)[C@@H]2N1Cc1ccncc1)N1CCCCC1 | 1 | 5 | -3.9
Cc1cc(C)nc(Nc2nc(C(N)CCc3ccccc3)cs2)n1 (stereo unspecified) | -4 | -18 | 7.9
COc1ccc(S(=O)(=O)N(C)C[C@H]2Oc3ccc(NC(=O)Cc4cn(C)c5ccccc45)cc3C(=O)N([C@H](C)CO)C[C@@H]2C)cc1 | -4 | 1 | 8.7
CCc1nc2c(OCC(N)=O)cccn2c1N(C)C(=O)C(C)C | 13 | 19 | 1.9

The listing continues.
SMILES | Ecoli rRNA inh | Ecoli rRNA inh OD600 | Ecoli rRNA inh RFP
N#C[C@@H]1[C@@H](c2ccc(-c3ccncc3)cc2)[C@@H](CO)N1C(=O)C1CCCCC1 | -3 | -7 | -0.4
COc1ccccc1NC(=O)N(C)C[C@@H]1Oc2ncc(C#CCC(C)C)cc2C(=O)N([C@H](C)CO)C[C@H]1C | -3 | -2 | 0.5
CO[C@H]1CN(C)C(=O)c2cc(NC(=O)NC3CCCCC3)ccc2OC[C@H](C)N(CC2CCOCC2)C[C@@H]1C | 0 | -5 | 0.9
Nc1ncnc2c1ncn2[C@@H]1O[C@H](C(=O)NCc2ccc(OC(F)(F)F)cc2)[C@@H](O)[C@H]1O | 1 | 1 | 1.5
COC(=O)[C@]12CCCCC=C1N(Cc1ccc(Cl)cc1Cl)C(=O)[C@H](CC(=O)NCc1cccc(C(F)(F)F)c1)C2 | 2 | 5 | -3.7
O=C(c1cccc(F)c1)N1CC[C@H]2[C@H](CO)Nc3ccc(C#Cc4ccccc4)cc3[C@H]21 | -13 | -5 | 13
Cc1ccc(S(=O)(=O)N(C)C[C@@H]2OCCCC[C@H](C)Oc3ccc(NC(=O)Nc4ccc5c(c4)OCO5)cc3C(=O)N([C@H](C)CO)C[C@H]2C)cc1 | -1 | 5 | 3.1
O=C(Nc1ccc2c(c1)OCCO2)C1C(=O)Nc2ccccc2C(=O)N1C1CCCCC1 (stereo unspecified) | 15 | 15 | 4.0
C[C@@H]1CN([C@H](C)CO)C(=O)c2cc(NC(=O)CCCN(C)C)ccc2O[C@H]1CN(C)Cc1ccc(C(=O)O)cc1 | 5 | 14 | -2.8
CC(=O)N(C)C[C@@H]1Oc2cc(C3=CCCCC3)ccc2S(=O)(=O)N([C@H](C)CO)C[C@H]1C | -3 | -6 | -0.4
C#CCN(C[C@@H]1[C@@H](OC(=O)NC2CC2)[C@@H](OC(=O)NC2CC2)Cn2c(=O)n(CCCCCC)c(=O)n21)S(=O)(=O)c1ccc(C)cc1 | 4 | 1 | 6.6
CC(C)NC(=O)N(C)C[C@H]1Oc2c(NC(=O)C3CC3)cccc2C(=O)N([C@H](C)CO)C[C@H]1C | 1 | 3 | -2.4
C[C@H]1CN([C@@H](C)CO)C(=O)c2cc(-c3cccnc3)cnc2O[C@H]1CN(C)C(=O)C1CCOCC1 | 8 | 5 | -8.3
COc1ccc2c3c([nH]c2c1)[C@H](CO)N(Cc1ccccc1OC)CC31CN(S(C)(=O)=O)C1 | 0 | -5 | -1.1
CO[C@H]1CN(C)C(=O)c2cc(NC(C)=O)ccc2OC[C@H](C)N(CCc2ccccc2)C[C@@H]1C | -3 | 1 | -0.4
COc1ccc(NC2CCCN(C(=O)C3=NNC(=O)CC3)C2)cc1 (stereo unspecified) | 13 | 24 | 2.6
COC(=O)[C@]12CCCCC=C1N(Cc1ccccc1)C(=O)[C@H](CC(=O)N1CCOCC1)C2 | 8 | 2 | -0.4
COCC1CCN(C(=O)c2cc(COc3ccc(OC)cc3Cl)on2)C1 (stereo unspecified) | -1 | -11 | 0.1
C[C@@H]1CN([C@@H](C)CO)C(=O)c2cc(NC(=O)CCCN(C)C)ccc2O[C@@H](C)CCCCO[C@@H]1CN(C)C(=O)Nc1ccccc1 | 2 | 9 | 0.7
O=C(C[C@@H]1CC[C@@H](NC(=O)c2ccc3c(c2)OCO3)[C@@H](CO)O1)NCc1ccc(Cl)cc1 | -1 | 0 | -2.0
COC(=O)N(C)C[C@@H]1OCc2ccccc2-c2c(n(C)c3ccccc23)C(=O)N([C@@H](C)CO)C[C@H]1C | -3 | -3 | -1.8
C[C@@H]1CN([C@H](C)CO)S(=O)(=O)c2ccc(C#Cc3ccccc3)cc2O[C@@H]1CN(C)C(=O)CN(C)C | 2 | 2 | 17
O=C1CN(S(=O)(=O)c2ccccc2)C[C@@H]2[C@H](c3ccc(C#Cc4ccccc4)cc3)[C@H](CO)N12 | 2 | 6 | -0.5

Not all compounds are listed; rates above refer to the full screens.
